Compound activity (PubChem)
HPGD inh: qHTS Assay for Inhibitors of HPGD (15-Hydroxyprostaglandin Dehydrogenase); 15-hydroxyprostaglandin dehydrogenase [NAD(+)] (Homo sapiens), P15428; purified HPGD, NADH fluorescence kinetic, PGE2 substrate; Potency, µM, without a hit: at the top dose activity change, negative = inhibition, hits mostly inhibitors; hit rate 4.3% among 150,000; AID 894, 2007; active = well fitted inhibition curve with a large enough effect (not every such curve was filed as active); inconclusive = small, poorly fitted or top-dose-only effect, or another doubt; inactive = no such curve, though single readings can be large or run the other way;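 further: top concentration of the series not given in the record; plate controls included wells without enzyme; inactives centre near -10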
Target sequence (P15428 whole entry, looked up): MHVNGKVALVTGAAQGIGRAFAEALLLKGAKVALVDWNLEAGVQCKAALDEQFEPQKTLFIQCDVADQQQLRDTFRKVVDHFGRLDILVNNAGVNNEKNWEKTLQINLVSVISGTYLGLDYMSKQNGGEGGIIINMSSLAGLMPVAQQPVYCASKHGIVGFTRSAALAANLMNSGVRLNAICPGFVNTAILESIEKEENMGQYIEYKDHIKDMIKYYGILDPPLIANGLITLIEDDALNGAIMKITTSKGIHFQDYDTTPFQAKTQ
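NADH formation kinetics: reaction with 30 uM PGE2 and 1 mM NAD+ (final), 20 nM enzyme, Tris-HCl pH 8 with Tween 20, after 15 min compound preincubation at room temperature. Fluorescence change, last versus first of five reads.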
Numbers without * were called inactive; ? = inconclusive; & = joins results of further samples. On the % scale 0 is the no-effect control and ±100 the full control effect; potency means the concentration at half of the fitted maximal effect.

Molecule | HPGD inh
CCCOc1ccc(/C=N/NC(=O)C2CCCN2S(=O)(=O)c2ccc(Cl)cc2)cc1 (stereo unspecified) | -3%
CC1(C)N=C(N)N=C(N)N1c1ccc(C(=O)O)cc1 | -4%
COc1ccc(C(C)=O)cc1CSc1nnc(Nc2ccccc2C)s1 | -30%
CCCC(CCC)C(=O)NCCN1CCOCC1 | -13%
FC(F)(F)c1nnc2ccc(-n3ccnc3)nn12 | -5%
O=C(NCc1ccccc1Cl)C1CCN(S(=O)(=O)N2CCCCCC2)CC1 | -2%
CC(C)c1nnc(SCC(=O)NCCC2=CCCCC2)n1N | 16µM*
COc1cc(C#N)ccc1OCC(=O)c1ccc2c(c1)OCCO2 | -21%
CC(NC(=O)c1ccc(N(C)C)cc1)C(c1cccs1)N1CCN(C)CC1 (stereo unspecified) | 2%
O=C(O)CCN=C1CCc2ccccc2N1 | 1%
N#CCCn1c(=O)c(-c2ccc(Cl)cc2)nc2cnc(OCc3ccccc3)nc21 | ?
COc1cc(N)c(Cl)cc1C(=O)OCCCN1CCCCC1 | -11%
COc1ccc(S(=O)(=O)N2Cc3ccccc3CC2C(=O)Nc2ccc3c(c2)OCO3)cc1 (stereo unspecified) | -10%
C[N+]1(CCC(=O)c2ccccc2)CCCCC1 | 32µM*
CC(C)c1c(O)nc(SCc2ccccc2)[nH]c1=O | ?
CCOC(=O)c1ccccc1NC(=O)C(C)Oc1ccccc1 (stereo unspecified) | -18%
COc1ccc(-c2cc(C(F)(F)F)nc(-n3cc(Cl)cn3)n2)cc1 | ?
COc1ccc(OCCSc2nc3ccccc3c(=O)[nH]2)cc1 | -16%
CCCN1CCN(CCCNC(=O)Cn2nc(-c3ccccc3)ccc2=O)CC1 | -8%
Cc1ccc(Cn2nnc3c(=O)n(CC(=O)NCC4CCCO4)cnc32)cc1 (stereo unspecified) | -15%
CCN(CC)CCNC(=O)c1cn(-c2ccccc2)nc1-c1cccs1 | -17%
CSc1nc(N)c2c3c(sc2n1)COC(C(C)C)C3 (stereo unspecified) | -4%
CCOC(=O)c1ccc2ncc(C(=O)OCC)c(NCCCN3CCOCC3)c2c1 | -12%
COc1ccc(Cl)cc1S(=O)(=O)N1CCN(CC(=O)C(C)(C)C)CC1 | 3%
COc1ccc(C(=O)NCC(=O)NC2=NCCS2)cc1 | 2%
COc1cccc(-c2nnc3n2N=C(c2cccc(Br)c2)CS3)c1 | -9%
COc1cc(NC(=O)COC(C)=O)c(C)cc1[N+](=O)[O-] | -1%
N=c1c(S(=O)(=O)c2ccc(Cl)cc2)cc2c(=O)n3ccccc3nc2n1CCN1CCOCC1 | ?
O=c1cc2[nH]c3ccccc3c(=O)n2nc1-c1ccccc1 | -23%
O=C(NCCCN1CCOCC1)c1cc(Cl)ccc1[N+](=O)[O-] | -11%
CC1(C)C=CC(=O)[C@]2(C)C1CC(=O)[C@]1(C)C2CC[C@@]2(C)C(c3ccoc3)OC(=O)C3OC321 (stereo partly specified) | -5%
CCC(C)NC(=O)Nc1ccccc1C (stereo unspecified) | -8%
CCCc1cc(C(=O)N/N=C/c2ccc(C)o2)c2ccccc2n1 | -15%
CCS(=O)(=O)NCCc1csc(C)n1 | 1%
COC(=O)c1ccc(C(=O)OC)c(NC(=O)C2CC2)c1 | -16%
Cc1cc(NC(=O)COC(=O)c2c(C)nn(-c3ccccc3)c2C)no1 | -16%
Cc1ccc(C(C)NC(=O)C2CCCO2)cc1C (stereo unspecified) | 16µM*
CCCOc1ccc(/C=N/NC(=O)C(=O)Nc2ccccn2)cc1 | ?
CCOC(=O)/C(=N\Nc1ccc(Cl)cc1)Sc1nnc(-c2ccc(OC)cc2)n1C | ?
CC(=C1C(=O)c2ccccc2C1=O)N1CCN(Cc2ccccc2)CC1 | 2%
Cc1nc(NNC(=O)c2ccc(Cl)cc2Cl)cc(-c2ccccc2)n1 | -6%
CCN(CC)c1cc2nonc2c2nonc12 | 0%
O=C(c1cccc([N+](=O)[O-])c1)N1CCCN(C(=O)c2cccc([N+](=O)[O-])c2)CC1 | -12%
CCOC(=O)c1ccc(N/C=C/C(=O)c2ccc(OC)cc2)cc1 | -14%
CCCCC(=O)N/N=C/c1sccc1C | -12%
CCC(C)(C)NC(=O)c1ccc2c(c1)S(=O)(=O)c1ccccc1C2=O | 25µM*
CC(C)OCCCNC(=O)c1c(N)n(/N=C/c2ccccn2)c2nc3ccccc3nc12 | -20%
CCCCCn1c(CNC(=O)c2cccs2)nc2ccccc21 | 4%
CCC(C)(NC(=O)CNC(C)=O)C(=O)NC1CCCCC1 (stereo unspecified) | 4%
COc1ccc2c(c1)SCCC2=O | -15%
CCOC(=O)CCCCCCCCCCCCC1C=CCC1 (stereo unspecified) | -21%
CCN1C(=O)c2cccc3c(N)ccc1c23 | -9%
O=C(Nc1cccc(NC(=O)c2ccc(-c3ccc(Br)cc3)o2)c1)c1ccco1 | ?
COC(=O)c1ccc(C2C(Oc3ccccc3)C(=O)N2CCc2ccc(F)cc2)cc1 (stereo unspecified) | -5%
c1ccc(Cc2nnc3sc(-c4ccncc4)nn23)cc1 | 11µM*
COCCn1c(=NC(=O)c2nc3ccccc3s2)sc2cc(S(C)(=O)=O)ccc21 | ?
Clc1ccsc1-c1ccc2ccccc2n1 | -24%
CCCN1C(=O)c2ccccc2NC1c1ccc(OC)cc1OC (stereo unspecified) | ?
COc1ccc(C(=O)N2CCC3(CC2)CCN(c2ccccc2)CC3)cc1 | -12%
Cc1cc(C)cc(NC(=S)NCc2cccs2)c1 | 14µM*

Other results follow.
Molecule | HPGD inh
CCOC(=O)c1cc(CNC(=O)c2c(C)oc3c2CCCC3)c(C)o1 | -15%
CCOc1cc(C(=O)N2CCN(C/C=C/c3ccccc3)CC2)cc(OCC)c1OCC | -3%
CC(=O)Nc1cccc(N2C(=O)CCC2=O)c1 | -4%
CCOC(=O)c1c(C)nc2sc3c(=O)n(-c4ccc(C(C)=O)cc4)cnc3c2c1-c1ccc(OC)cc1 | -8%
CCN(CC)C(=O)Cc1cc(C(=O)O)c2ccccc2n1 | -2%
CN(C)C(=O)N1CCC(C(=O)NCC2CCCO2)CC1 (stereo unspecified) | -3%
COC(=O)c1cccc(-n2c(C)cc(C=O)c2C)c1C | -11%
COc1ccc(-c2cc(C(F)F)n3ncc(C(=O)n4ccnc4C)c3n2)cc1 | ?
CCCCn1c(C)cc2cc(O)ccc21 | -20%
CCCSc1nnc(-c2ccccc2NC(=O)CC)c(=O)[nH]1 | -6%
O=C(CCS(=O)(=O)c1cccs1)N1CCCC1 | -1%
CCn1cc([N+](=O)[O-])c(C(=O)Nc2ccc(Br)cn2)n1 | -1%
O=C(NC(=S)NC1C2CC3CC(C2)CC1C3)C12CC3CC(CC(C3)C1)C2 (stereo unspecified) | -17%
Cc1cc(C)c(S(=O)(=O)N2CCCOC2CNC(=O)C(=O)NCCC2=CCCCC2)c(C)c1 (stereo unspecified) | -20%
Cc1c(Cl)c([N+](=O)[O-])nn1CCCC(=O)Nc1c(Cl)cccc1Cl | -7%
COc1ccccc1N(CC(O)CN(c1ccccc1)S(C)(=O)=O)S(=O)(=O)c1ccccc1 (stereo unspecified) | -7%
CC(=O)C(C)Oc1ccc2c3c(c(=O)oc2c1)CCCC3 (stereo unspecified) | ?
NC(N)=N/N=C/c1ccc(OCc2ccccc2Cl)cc1 | -6%
O=c1c(-c2ccccc2)c(O)c2c(n1-c1ccccc1)CCCC2 | -11%
N#CCc1nn(-c2ccc(Cl)cc2)c(N)c1C#N | -7%
Cc1cc(=O)oc2c(C(=O)/C=C/c3ccccc3)c(O)ccc12 | -27%
COc1ccc(C(=O)N/N=C(\C)Cn2cnc([N+](=O)[O-])n2)cc1 | 4%
COC(=O)N/N=C/c1cccnc1 | -1%
C=CCN(CC=C)C(=O)C1CC(=O)N(c2ccc(Br)cc2)C1 (stereo unspecified) | -14%
CCOC(=O)C1CCN(C(=O)C2CCN(S(=O)(=O)c3cc(Cl)ccc3Cl)CC2)CC1 | -13%
CCOCCCNC(=O)CCCn1nc(C)n2c(cc3sccc32)c1=O | -13%
COc1ccc(Cl)cc1NC(=O)COC(=O)C(CC(C)C)N1C(=O)C2CC=CCC2C1=O (stereo unspecified) | 0%
CCN1C(=O)C2(C(C#N)=C(N)Oc3cc(C)oc(=O)c32)c2ccccc21 (stereo unspecified) | 0%
CC(/C=N/NC(=O)CSc1nc2ccccc2n1C)=C\c1ccco1 | -11%
CCOC(=O)c1c(-c2ccc(C)cc2)csc1NC(=O)CCSc1nnc2ccccn12 | ?
CNC(=O)CSc1nnc(-c2cccnc2)n1CCc1ccccc1 | -9%
C/C(=N/NC(=O)CN1CCN(Cc2ccccc2Cl)CC1)c1ccncc1 | -2%
CC1CCN(S(=O)(=O)c2cccc(C(N)=O)c2)CC1 | -13%
CCCCN(C)CCOc1ccccc1OCC | -2%
C=Cn1ccnc1P(=S)(c1ccc2c(c1)c1ccccc1n2CC)c1nccn1C=C | ?
CC1Cc2nc(SCC(=O)N3CCCC3)n(C)c(=O)c2S1 (stereo unspecified) | -14%
CS(=O)(=O)N1N=C(c2ccco2)CC1c1ccc(Cl)cc1 (stereo unspecified) | -7%
COC(=O)c1ccc(Oc2ccc(C(C)(C)C)cc2)c([N+](=O)[O-])c1 | ?
CC(C)C(=O)Nc1ccc2c(c1)C(=O)N(CCC(=O)O)C2=O | ?
Cn1c(Cn2c(=O)sc3ccccc32)nnc1SCC(=O)N1CCCC1 | -6%
CCOC(=O)C1CCN(C(=O)c2ccco2)CC1 | -1%
COC(=O)c1ccc(CSc2nc3ccc(S(=O)(=O)N4CCOCC4)cc3[nH]2)cc1 | 28µM*
CC(=O)N1CCC(C(=O)Nc2nc(-c3ccccc3)ns2)CC1 | -3%
COC(=O)N1[C@H](Cc2ccccc2)C=C[C@]1(C)C(=O)O | -14%&-10%
CC(C)(C)NS(=O)(=O)c1ccc(OCC(=O)Nc2ccc3c(c2)OCCO3)cc1 | -5%
CN(C)S(=O)(=O)c1cccc2nsnc12 | -3%
CC1CCCC(C)N1CC(O)COc1ccc(Cl)cc1 (stereo unspecified) | -19%
NC(=O)NOCc1ncc(C(F)(F)F)cc1Cl | -13%

Reprinted from the part before: 2 compounds, then new ones.
Molecule | HPGD inh
CC1CCCC(C)N1CC(O)COc1ccc(Cl)cc1 (stereo unspecified) | -19%
NC(=O)NOCc1ncc(C(F)(F)F)cc1Cl | -13%
CS(=O)(=O)N(CC(=O)N1CCN(c2ccc(F)cc2)CC1)C1CCCCC1 | -4%
O=C(NCc1ccccn1)c1ccc(CNS(=O)(=O)c2cccc(Cl)c2)cc1 | -7%
Cn1c(C(=O)NCCCN2CCc3ccccc3C2)cc2c(=O)n(C)c3ccccc3c21 | -21%
Cc1ccc(C(=O)NCCSc2ccc(Cl)cc2)cc1[N+](=O)[O-] | -19%
CC(C)(C)c1ccc(OCCNC(=O)Cc2ccc(F)cc2)cc1 | -9%
CCCCN(CCCC)CP(=O)(c1ccccc1)c1ccccc1 | -6%
COCCn1c(C)cc(C(=O)CSc2ccc3ccccc3n2)c1C | -27%
O=S(=O)(c1ccc(OCC(O)CNCc2ccco2)c(Cl)c1)N1CCOCC1 (stereo unspecified) | -4%
Cc1nnc(SCc2nc3ccccc3s2)n1-c1ccccc1 | -1%
CCn1c(/N=C/c2ccccc2NS(=O)(=O)c2ccc(C)cc2)nc2ccccc21 | -6%
O=C1C=C(Nc2ccc(Cl)cc2)CC(c2ccc(Cl)cc2)C1 (stereo unspecified) | 32µM*
COc1cccc(C2C(C(=O)c3cccs3)=C(O)C(=O)N2c2cc(C)on2)c1 (stereo unspecified) | -25%
COc1ccc(-c2cn3cccnc3n2)cc1NC(=O)c1ccc(Br)o1 | ?
Cc1ccc(-c2c[n+](CC(=O)Nc3cc(=O)n(C)c(=O)n3C)c3n2CCC3)cc1 | -7%
CCn1c(N)c(C(=O)NCC2CCCO2)sc1=S (stereo unspecified) | 6.3µM*
CCOc1ccc(-c2nnc(SCC(=O)Nc3ccc4c(c3)c3ccccc3n4CC)n2N)cc1 | -30%

Of the compounds above, these have two or more sulfur atoms:
Molecule | HPGD inh
COc1ccc(C(C)=O)cc1CSc1nnc(Nc2ccccc2C)s1 | -30%
CSc1nc(N)c2c3c(sc2n1)COC(C(C)C)C3 (stereo unspecified) | -4%
CCS(=O)(=O)NCCc1csc(C)n1 | 1%
COCCn1c(=NC(=O)c2nc3ccccc3s2)sc2cc(S(C)(=O)=O)ccc21 | ?
Cc1cc(C)cc(NC(=S)NCc2cccs2)c1 | 14µM*
O=C(CCS(=O)(=O)c1cccs1)N1CCCC1 | -1%
COc1ccccc1N(CC(O)CN(c1ccccc1)S(C)(=O)=O)S(=O)(=O)c1ccccc1 (stereo unspecified) | -7%
CCOC(=O)c1c(-c2ccc(C)cc2)csc1NC(=O)CCSc1nnc2ccccn12 | ?
CC1Cc2nc(SCC(=O)N3CCCC3)n(C)c(=O)c2S1 (stereo unspecified) | -14%
Cn1c(Cn2c(=O)sc3ccccc32)nnc1SCC(=O)N1CCCC1 | -6%
COC(=O)c1ccc(CSc2nc3ccc(S(=O)(=O)N4CCOCC4)cc3[nH]2)cc1 | 28µM*
CN(C)S(=O)(=O)c1cccc2nsnc12 | -3%
Cc1nnc(SCc2nc3ccccc3s2)n1-c1ccccc1 | -1%
CCn1c(N)c(C(=O)NCC2CCCO2)sc1=S (stereo unspecified) | 6.3µM*

Some of the compounds tested, so the mix of outcomes need not match the whole.
